NOMO-1 viab: STK33 inhibitor candidate reducing NOMO-1 cell viability | NOMO-1 AML viability, CellTiter-Glo luminescence, 72 h | inhibition, % (test concentration not listed) | hit rate 7.5% among 37,000 | AID 2330;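 active = most replicates above 80%; inconclusive = exactly half above 80%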;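 note: wells of about 30 µL received 25 nL stock; 0% = median of vehicle wells and 100% = reference inhibitor level; the first replicate is given; inactives centre near 10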
* marks the source's active call; other numbers are inactive results; u = inconclusive. Only part of the results is shown. The share of hits here may be higher or lower than overall.

SMILES	NOMO-1 viab
C[C@H](CO)N1C[C@H](C)[C@H](CN(C)S(=O)(=O)c2cn(C)cn2)Oc2ccc(NC(=O)c3ccncc3)cc2C1=O	-16
Cc1ccc(S(=O)(=O)N(C)C[C@@H]2Oc3ccc(NC(=O)c4ccncc4)cc3C(=O)N([C@H](C)CO)C[C@@H]2C)cc1	14
Cc1ccccc1OCc1nn2c(COc3ccccc3)nnc2s1	46
CC(C)=C1C[C@@]2(CO)C(=CC1=O)CC[C@@H](O)[C@@H]2C	5
COc1ccccc1NC(=O)CNS(=O)(=O)c1ccc(C(C)(C)C)cc1	1
COc1ccc(S(=O)(=O)N(C)CC(=O)Nc2ccccc2)cc1C	0
CC(C)NC(=O)Nc1ccc2c(c1)C(=O)N([C@H](C)CO)C[C@H](C)[C@@H](CN(C)C(=O)NC1CCCCC1)OCCCC[C@@H](C)O2	-10
N#Cc1c(C(F)(F)F)cc(-c2ccccc2)nc1SCCC(=O)Nc1ccccc1	26
Cc1cc(C)cc(N(C(C)C(=O)Nc2cccc(C(F)(F)F)c2)S(C)(=O)=O)c1 (centres undefined)	19
C[C@@H]1CN([C@H](C)CO)C(=O)c2cccc(NC(=O)Nc3ccccc3)c2O[C@@H]1CN(C)Cc1ccncc1	-18
Cc1cccc(-c2noc(CN(C(C)C)S(=O)(=O)c3ccc(F)cc3)n2)c1	39
CC(C)NC(=O)Nc1cccc2c1O[C@@H](CN(C)CC1CC1)[C@H](C)CN([C@H](C)CO)C2=O	-4
COc1ccc(-c2cc(SCCN3CCOCC3)c(C#N)c(-c3ccccc3)n2)cc1	29
COc1ccc(NC(=O)N(C)C[C@H]2Oc3ccc(NS(=O)(=O)c4cn(C)cn4)cc3C(=O)N([C@H](C)CO)C[C@@H]2C)cc1	22
C[C@@H]1CN([C@@H](C)CO)C(=O)Cc2cc(NC(=O)Nc3cccc4ccccc34)ccc2O[C@@H]1CN(C)C(=O)Nc1cccc2ccccc12	11

2 entries from above, with each value named.
> COc1ccc(NC(=O)N(C)C[C@H]2Oc3ccc(NS(=O)(=O)c4cn(C)cn4)cc3C(=O)N([C@H](C)CO)C[C@@H]2C)cc1
- NOMO-1 viab: 22
> C[C@@H]1CN([C@@H](C)CO)C(=O)Cc2cc(NC(=O)Nc3cccc4ccccc34)ccc2O[C@@H]1CN(C)C(=O)Nc1cccc2ccccc12
- NOMO-1 viab: 11

The main list resumes; the 2 compounds before the break are reprinted first.
SMILES	NOMO-1 viab
COc1ccc(NC(=O)N(C)C[C@H]2Oc3ccc(NS(=O)(=O)c4cn(C)cn4)cc3C(=O)N([C@H](C)CO)C[C@@H]2C)cc1	22
C[C@@H]1CN([C@@H](C)CO)C(=O)Cc2cc(NC(=O)Nc3cccc4ccccc34)ccc2O[C@@H]1CN(C)C(=O)Nc1cccc2ccccc12	11
C[C@H]1CN([C@@H](C)CO)C(=O)Cc2cc(NC(=O)Nc3ccc4c(c3)OCO4)ccc2O[C@@H]1CN(C)Cc1ccccc1	-16
C[C@@H]1CN([C@H](C)CO)C(=O)Cc2cc(NC(=O)CCCN(C)C)ccc2O[C@@H]1CN(C)S(=O)(=O)c1cccs1	-8
COc1ccc(NC(=O)Nc2ccc3c(c2)CC(=O)N([C@H](C)CO)C[C@@H](C)[C@@H](CN(C)S(C)(=O)=O)O3)cc1	10
Cc1nn2c(CN(C(=O)c3cccs3)c3ccccc3)nnc2c2ccccc12	28
Cc1ccc(Cl)cc1N(CC(=O)Nc1ccc(I)cc1)S(C)(=O)=O	66
CC(Oc1cccc(Cl)c1)c1nc(-c2cccnc2)no1 (centres undefined)	41
C[C@@H]1CN([C@H](C)CO)C(=O)Cc2cc(NC(=O)Nc3ccc4c(c3)OCO4)ccc2O[C@@H]1CN(C)Cc1ccc(-c2ccccc2)cc1	73
C[C@@H]1CCCCO[C@H](CN(C)S(=O)(=O)c2ccc(F)cc2)[C@@H](C)CN([C@H](C)CO)C(=O)c2cc(NC(=O)C3CCCCC3)ccc2O1	-8
CCc1ccc(OCC(=O)Nc2ccc3oc(-c4ccccc4F)nc3c2)cc1	18
COc1ccc(C)cc1NC(=O)CN1C(=O)CN(c2ccccc2)C1=O	10
C[C@@H]1CN([C@@H](C)CO)C(=O)c2cccc(NS(=O)(=O)c3cn(C)cn3)c2O[C@H]1CN(C)C(=O)Nc1ccc(C(F)(F)F)cc1	-12
CC(C)NC(=O)N(C)C[C@@H]1Oc2ccc(NC(=O)Cc3ccccc3)cc2C(=O)N([C@H](C)CO)C[C@@H]1C	19
Cc1ccc(S(=O)(=O)Nc2ccc3c(c2)CC(=O)N([C@H](C)CO)C[C@@H](C)[C@@H](CN(C)C(=O)Nc2ccc(C(F)(F)F)cc2)O3)cc1	35
C[C@@H]1CCCCO[C@H](CN(C)C(=O)Nc2ccc(C(F)(F)F)cc2)[C@@H](C)CN([C@H](C)CO)C(=O)c2cc(NS(=O)(=O)c3ccc(F)cc3)ccc2O1	65
O=C1C(=O)N(Cc2cccnc2)C(c2ccc(Br)cc2)C1C(=O)c1cccs1 (centres undefined)	-2
C[C@H](CO)N1C[C@H](C)[C@@H](CN(C)Cc2ccc(-c3ccccc3)cc2)Oc2c(NC(=O)C3CCCCC3)cccc2C1=O	52
Cc1ccc(C(=O)NC(NCc2ccco2)(C(F)(F)F)C(F)(F)F)cc1	39
CC1=C(C(=O)OC2CCCN(C)C2)C2(O)C(=O)c3ccccc3C2(O)N1 (centres undefined)	-20
CNC[C@@H]1OCCCC[C@@H](C)Oc2ccc(NS(=O)(=O)c3ccc(Cl)cc3)cc2C(=O)N([C@H](C)CO)C[C@@H]1C	15
CC(=O)Nc1sccc1C(=O)NCc1ccco1	42
O=C(CN1CCCc2ccccc21)Nc1ccc(Cl)c(Cl)c1	39
CC(=O)O[C@@]1(C)[C@@H]2CC(=C(C)C)C(=O)C[C@@]2(C)CC[C@H]1OC(=O)C1(C)OC1C (some centres undefined)	8
COc1ccc(Cl)cc1NC(=O)CSc1nnc(-c2ccccc2)n1C	14
Cc1c(NC(=O)CN(c2cccc(F)c2)S(C)(=O)=O)c(=O)n(-c2ccccc2)n1C	25
C[C@@H]1CN([C@@H](C)CO)C(=O)c2cccc(N(C)C)c2O[C@H]1CN(C)Cc1ccc(Cl)c(Cl)c1	97*
CC(C)CC1NC(=O)C(C)NC1=O (centres undefined)	-14
Cc1noc(C)c1NC(=O)Nc1cccc2c1O[C@H](CN(C)C(=O)NC1CCCCC1)[C@@H](C)CN([C@H](C)CO)C2=O	-1
CCOC(=O)c1cnn(-c2nc(C)cc(C)n2)c1N	9
COc1ccc(NC(=O)Nc2ccc3c(c2)C(=O)N([C@H](C)CO)C[C@H](C)[C@@H](CN(C)Cc2ccccc2)OCCCC[C@@H](C)O3)cc1	1
CCOC(=O)c1c(NC(=O)C(C)Oc2ccc3c(C)cc(=O)oc3c2)sc2c1CCC2 (centres undefined)	25
CS(=O)(=O)N(CC(=O)Nc1ccc(Cl)c(Cl)c1)c1cc(Cl)cc(Cl)c1	38
C[C@H](CO)N1C[C@H](C)[C@@H](CN(C)CC2CC2)Oc2c(NC(=O)Nc3ccccc3)cccc2C1=O	17
C[C@@H]1CN([C@@H](C)CO)C(=O)Cc2cc(NC(=O)C3CCCCC3)ccc2O[C@@H]1CN(C)Cc1ccc(Oc2ccccc2)cc1	95*
CC(C)NC(=O)N(C)C[C@@H]1Oc2ccc(NC(=O)CCC(F)(F)F)cc2CC(=O)N([C@H](C)CO)C[C@H]1C	23
COC(=O)C1=C(NC(=O)c2ccccc2C)CCS1	9
COc1ccc(NC(=O)Cc2c(OC)ccc3cc(Br)ccc23)c(OC)c1	46
C[C@H]1CN([C@@H](C)CO)C(=O)Cc2cc(NC(=O)CCN3CCOCC3)ccc2O[C@H]1CN(C)C(=O)Nc1ccc(F)cc1	1
C[C@H](CO)N1C[C@H](C)[C@H](CN(C)C(=O)NC2CCCCC2)Oc2c(NS(C)(=O)=O)cccc2C1=O	10
COc1ccc(NS(=O)(=O)c2ccc(N)cc2)nn1	28
COc1ccc(NC(=O)Nc2cccc3c2O[C@@H](CN(C)Cc2ccc(-c4ccccc4)cc2)[C@@H](C)CN([C@@H](C)CO)C3=O)cc1	40
C[C@@H]1CN([C@H](C)CO)C(=O)Cc2cc(NC(=O)Nc3ccc(F)cc3)ccc2O[C@H]1CN(C)S(=O)(=O)c1cccs1	31
Cc1ccc(S(=O)(=O)Nc2cccc3c2O[C@H](CN(C)Cc2ccc(C(=O)O)cc2)[C@@H](C)CN([C@@H](C)CO)C3=O)cc1	13
C[C@H]1CN([C@@H](C)CO)C(=O)Cc2cc(NC(=O)c3ccncc3)ccc2O[C@H]1CN(C)C(=O)Nc1cccc2ccccc12	17
COc1ccc(S(=O)(=O)Nc2cccc3c2O[C@@H](CN(C)S(=O)(=O)c2cccs2)[C@@H](C)CN([C@H](C)CO)C3=O)cc1	-11
Cc1cc2nn(-c3ccc(Cl)cc3)nc2cc1NC(=O)COc1ccccc1C	4
C[C@H]1CN([C@@H](C)CO)C(=O)c2cc(NC(=O)NC3CCCCC3)ccc2O[C@H]1CN(C)Cc1ccc(C(=O)Nc2ccccc2N)cc1	59
C[C@@H]1CN([C@@H](C)CO)C(=O)c2cccc(NC(=O)C3CC3)c2O[C@H]1CN(C)Cc1ccc(C(F)(F)F)cc1	u
O=C1c2ccccc2C(=O)N1CCc1nc2ccccc2c(=O)n1-c1nc2ccccc2s1	15
CC(C)NC(=O)Nc1ccc2c(c1)CC(=O)N([C@H](C)CO)C[C@@H](C)[C@H](CN(C)CC1CCCCC1)O2	-11
C[C@H](CO)N1C[C@H](C)[C@H](CN(C)Cc2ccc(-c3ccccc3)cc2)Oc2ccc(NC(=O)Cc3ccccc3)cc2C1=O	u
COc1cc(OC)cc(C2C(C#N)=C(N)Oc3n[nH]c(-c4cccnc4)c32)c1 (centres undefined)	1
Cc1noc(C)c1NC(=O)Nc1ccc2c(c1)CC(=O)N([C@@H](C)CO)C[C@H](C)[C@@H](CN(C)S(=O)(=O)c1cn(C)cn1)O2	12
Cn1c(Cn2nnc(-c3ccccc3)n2)nnc1SCC(N)=O	2
C[C@H](CO)N1C[C@H](C)[C@@H](CN(C)Cc2ccc(C(F)(F)F)cc2)Oc2ccc(NC(=O)C3CCCCC3)cc2C1=O	20
C[C@H](CO)N1C[C@H](C)[C@H](CN(C)C(=O)Nc2ccc(F)cc2)Oc2ccc(NC(=O)Cn3cnnn3)cc2CC1=O	15
Cc1nnc(SCC(=O)Nc2ccc(I)cc2C(C)C)s1	-1
NS(=O)(=O)c1cc2c(cc1Cl)NC(CSCc1ccccc1)=NS2(=O)=O	20
COc1ccc(CN(C)C[C@@H]2OCCCC[C@@H](C)Oc3ccc(NS(=O)(=O)c4ccc(Cl)cc4)cc3C(=O)N([C@H](C)CO)C[C@@H]2C)cc1	30
Cc1noc(C)c1NC(=O)N(C)C[C@@H]1OCCCC[C@@H](C)Oc2ccc(NS(=O)(=O)c3ccccc3)cc2C(=O)N([C@H](C)CO)C[C@@H]1C	14
CC(C)NC(=O)N(C)C[C@@H]1Oc2ccc(NC(=O)Nc3ccc(F)cc3)cc2C(=O)N([C@H](C)CO)C[C@@H]1C	-4

Shown comma-delimited: three of the compounds above
molecule,NOMO-1 viab
C[C@H](CO)N1C[C@H](C)[C@H](CN(C)Cc2ccc(-c3ccccc3)cc2)Oc2ccc(NC(=O)Cc3ccccc3)cc2C1=O,u
COc1cc(OC)cc(C2C(C#N)=C(N)Oc3n[nH]c(-c4cccnc4)c32)c1 (centres undefined),1
Cc1noc(C)c1NC(=O)Nc1ccc2c(c1)CC(=O)N([C@@H](C)CO)C[C@H](C)[C@@H](CN(C)S(=O)(=O)c1cn(C)cn1)O2,12

Additional compounds follow.
SMILES	NOMO-1 viab
Cc1noc(C)c1NC(=O)Nc1cccc2c1O[C@H](CN(C)Cc1ccc(-c3ccccc3)cc1)[C@@H](C)CN([C@H](C)CO)C2=O	111*
COc1ccc(S(=O)(=O)N(C)C[C@@H]2Oc3ccc(NS(=O)(=O)c4ccccc4)cc3CC(=O)N([C@H](C)CO)C[C@@H]2C)cc1	1
Cn1c(=O)oc2cc(S(=O)(=O)NCCC(=O)O)ccc21	38
C[C@H]1CN([C@@H](C)CO)C(=O)c2cc(NC(=O)Nc3ccc(F)cc3)ccc2O[C@H]1CN(C)Cc1ccc2c(c1)OCO2	92*
CCN(CC(=O)Nc1ccccc1)S(=O)(=O)c1ccc(F)cc1	10
CCn1c2ccccc2c2cc(NS(=O)(=O)c3ccccc3)ccc21	136*
C[C@H](CO)N1C[C@H](C)[C@H](CN(C)Cc2ccc(C(=O)O)cc2)Oc2ccc(NC(=O)Cc3cn(C)c4ccccc34)cc2CC1=O	-7
C[C@H](CO)N1C[C@H](C)[C@H](CN(C)Cc2ccc(Oc3ccccc3)cc2)Oc2ccc(NC(=O)CCCCCC(=O)Nc3ccccc3N)cc2CC1=O	140*
Cc1noc(C)c1NC(=O)Nc1cccc2c1O[C@@H](CN(C)C(=O)Nc1ccc(C(F)(F)F)cc1)[C@@H](C)CN([C@H](C)CO)C2=O	25
C[C@@H]1CCCCO[C@H](CN(C)S(=O)(=O)c2ccc(F)cc2)[C@@H](C)CN([C@H](C)CO)C(=O)c2cc(NS(=O)(=O)c3cn(C)cn3)ccc2O1	0
CC(=O)c1cccc(N(CC(=O)Nc2ccccc2C)S(C)(=O)=O)c1	14
Cc1ccc(NC(=O)Cn2nc(C)c([N+](=O)[O-])c2C)cc1Cl	27
COC(=O)c1c(-c2ccccc2)csc1NC(=O)C1CCCCC1C(=O)O (centres undefined)	-1
C[C@H](CO)N1C[C@H](C)[C@@H](CN(C)S(C)(=O)=O)Oc2c(NC(=O)C3CCOCC3)cccc2C1=O	8
COc1ccc(NC(=O)N(C)C[C@H]2Oc3c(NC(=O)NC4CCCCC4)cccc3C(=O)N([C@H](C)CO)C[C@H]2C)cc1	23
C[C@@H]1CN([C@H](C)CO)C(=O)c2cc(NS(=O)(=O)c3ccccc3)ccc2O[C@H]1CN(C)Cc1ccc(C(=O)O)cc1	-19
C[C@@H]1CN([C@@H](C)CO)C(=O)Cc2cc(NC(=O)Nc3cccc4ccccc34)ccc2O[C@@H]1CN(C)S(=O)(=O)c1ccccc1	1

Compound activity: PubChem BioAssay, Broad Institute
